LANA-H2B inh = blockers of LANA interaction with H2A/H2B – biochemical, FP readout, HTS, primary screen | Protein LANA1 (Human herpesvirus 8 type P (isolate GK18)), Q9QR71 | hit rate 0.6% among 320,000 | inhibition, % (concentration not given with the values) | cell-free LANA-H2A/H2B peptide, fluorescence polarization; in the data active = inhibition mostly above about 10%, no sharp cut-off; inactive = mostly below about 6.7%;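 also: stock transfer was 7.5 nL into about 10 µL; 0% = median of vehicle wells and 100% = median of positive control wells; one replicate is shown; the record names a cut of 25% in any replicate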
ALR H2O2 inh = inhibitors of human ALR sulfhydryl oxidase, primary screen, biochemical, H2O2 detection, HRP-luminol luminescence, single point; hit rate 3.8% among 290,000; FAD-linked sulfhydryl oxidase ALR (Homo sapiens), P55789; AID 485317, 2010; purified ALR, DTT oxidation; inhibition, % (no concentration beside the values);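 active = mean and each replicate at 75% or more; inconclusive = only one of the two met; inactive = neither met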;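 also: stock transfer was 7.5 nL into about 7.5 µL; 0% = neutral wells and 100% = wells with inactivated enzyme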
Target sequence (P55789 whole entry, looked up): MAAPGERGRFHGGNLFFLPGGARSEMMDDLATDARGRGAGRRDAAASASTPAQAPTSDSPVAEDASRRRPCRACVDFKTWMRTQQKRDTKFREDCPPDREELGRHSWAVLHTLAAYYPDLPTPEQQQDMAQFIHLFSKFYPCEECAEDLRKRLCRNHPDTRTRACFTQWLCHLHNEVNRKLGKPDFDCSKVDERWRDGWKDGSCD
UCH37 DUB inh = inhibitors of human UCH37 deubiquitinase, primary screen, biochemical, Ub-AMC cleavage, fluorescence; Ubiquitin carboxyl-terminal hydrolase isozyme L5 (Homo sapiens), Q9Y5K5; purified proteasome/UCH37; inhibition, % (no concentration beside the values); hit rate 0.33% among 330,000; AID 588478, 2011;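 active = mean of two replicates above 20%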;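 also: 0% = compound-free wells with enzyme and 100% = wells lacking proteasome; stock transfer was 100 nL into about 20 µL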
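Schedule: 30 min plus 25 min, room temperature / Material: human UCH37 within purified proteasomes / Technique: AMC fluorescence intensity at 355/460 nm / Buffer or medium: pH 7.4 Tris-HCl (50 mM) with ovalbumin, ATP-MgCl2, DTT / Controls: wells without proteasome as full block, compound-free enzyme plus substrate as uninhibited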
B2AR ag = beta2AR agonists driving receptor internalization, primary screen, cell-based, FAP fluorogen, flow cytometry; hit rate 0.43% among 340,000; Beta-2 adrenergic receptor (Homo sapiens), P07550; response, % (no concentration beside the values); Am2.2-beta2AR cells; reference of the scale not given here;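 active = response above a set limit, near 3 SD of response in nonfluorescent compounds, cut at about 42% in these data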;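 also: stock transfer was 100 nL into about 11 µL; a reference agonist was the positive control; negative values mostly stem from fluorescent compounds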
Target sequence (P07550 whole entry, looked up): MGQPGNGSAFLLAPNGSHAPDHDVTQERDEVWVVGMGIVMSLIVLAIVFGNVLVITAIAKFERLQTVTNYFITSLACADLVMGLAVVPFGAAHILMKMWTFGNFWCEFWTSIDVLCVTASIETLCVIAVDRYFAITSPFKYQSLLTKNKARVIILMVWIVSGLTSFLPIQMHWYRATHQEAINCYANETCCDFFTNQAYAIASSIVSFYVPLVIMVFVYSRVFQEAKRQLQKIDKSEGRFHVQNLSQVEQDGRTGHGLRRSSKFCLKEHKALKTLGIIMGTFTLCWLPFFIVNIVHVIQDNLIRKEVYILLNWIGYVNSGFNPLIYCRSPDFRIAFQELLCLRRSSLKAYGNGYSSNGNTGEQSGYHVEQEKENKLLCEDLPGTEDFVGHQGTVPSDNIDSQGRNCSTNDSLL
HNF4A DNA FP = change in binding of human HNF4A to DNA, primary screen, biochemical, fluorescence polarization, FITC-DNA; hit rate 0.3% among 360,000; 1 h; activity change, % at 10 µM; in the data active = activity change above about 30%, passing the limit was not always enough;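 also: controls were the assay level and a saturating level of protein; the project sought stronger binding though the title names inhibitors; some compounds called inactive have numbers as strong as hits; positive values seem to mean higher polarization but the record does not say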
FGF22 binding = binders of human FGF22 protein, primary screen, FGF22 synaptogenesis inhibitor project, biophysical, thermal shift, single point; recombinant FGF22 thermal shift, SYPRO orange fluorescence; percent of sucrose octasulfate shift, DMSO zero; AID 651658, 2012; calls only at 9.99 µM; hit rate 1.5% among 340,000;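 active = melting point raised past a set limit in the mean and every replicate; inconclusive = no clear call; three in four hits are not shown here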
Target sequence (Q9HCT0 whole entry, looked up): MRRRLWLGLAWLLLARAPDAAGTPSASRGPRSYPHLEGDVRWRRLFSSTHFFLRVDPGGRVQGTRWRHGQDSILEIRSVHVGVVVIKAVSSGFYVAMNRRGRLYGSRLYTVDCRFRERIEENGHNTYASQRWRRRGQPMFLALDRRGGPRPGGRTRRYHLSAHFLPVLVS
E coli growth = E. coli growth inhibition, primary screen, OD600; OD600 absorbance (test concentration not listed); hit rate 0.21% among 330,000; Escherichia coli growth, 23 h; stronger effect = lower value; AID 1053175, 2014;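 active = OD600 absorbance below the run mean of sample wells minus 3.6 SD, in any replicate, cut at about 0.56 in these data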;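 also: stock transfer was 300 nL into about 60 µL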
* hit, by the source's call; i = inactive; ? = inconclusive; · = not tested or not shown. Some of the compounds tested; rates above refer to the full screens.

SMILES	LANA-H2B inh	ALR H2O2 inh	UCH37 DUB inh	B2AR ag	HNF4A DNA FP	FGF22 binding	E coli growth
COc1ccc(NC(=O)CN2CCN(Cc3ccc4c(c3)OCO4)CC2)cc1OC	-2.1	-8.1	-1.2	1.1	-0.2	·	0.683
Cc1cc(NC(=O)CSc2nnc3c4c(C)c(C)sc4ncn23)no1	4.1	-4.1	-6.4	8.6	5.7	i	0.659
Cc1c(Cl)cccc1NC(=S)N1CCCCCC1	2.3	9.4	2.5	11.1	5.4	i	0.71
Cc1ccc(NC(=O)CN2CCCCCC2)cc1Br	-6.4	-2.0	2.5	-3.8	5.4	i	0.674
CCOC(=O)c1sc2nc(C)nc(SC(C)C(=O)N(C)c3ccccc3)c2c1C (centres undefined)	2.6	-3.5	5.3	24.3	-2.1	i	0.746
O=C(O)CCCCCn1c(SCc2cc(=O)n3ccccc3n2)nc2ccsc2c1=O	-4.6	-3.5	-21.6	-7.4	-2.0	i	0.719
O=C(CNC(=O)c1cccs1)NCCN1CCN(Cc2ccccc2)CC1	6.1	-1.3	1.6	-12.3	0.7	·	0.671
COc1cc2c(cc1OC)CN(CC(=O)Nc1ccc(F)cc1)CC2	3.1	-20.3	-9.7	-7.8	0.5	i	0.706
COc1ccc(NC(=O)c2ccc(CN3CCN(c4ccccc4)CC3)cc2)cc1OC	-1.8	70.5	-31.6	2.5	-2.8	·	0.726
O=C(Cc1ccccc1)N/N=C/c1ccc(OC(=O)/C=C\c2ccco2)cc1	-0.6	33.8	·	2.3	5.8	·	·

Gathered by group, the entries above containing a halogen.
SMILES	LANA-H2B inh	ALR H2O2 inh	UCH37 DUB inh	B2AR ag	HNF4A DNA FP	FGF22 binding	E coli growth
Cc1c(Cl)cccc1NC(=S)N1CCCCCC1	2.3	9.4	2.5	11.1	5.4	i	0.71
Cc1ccc(NC(=O)CN2CCCCCC2)cc1Br	-6.4	-2.0	2.5	-3.8	5.4	i	0.674
COc1cc2c(cc1OC)CN(CC(=O)Nc1ccc(F)cc1)CC2	3.1	-20.3	-9.7	-7.8	0.5	i	0.706

The list goes on.
SMILES	LANA-H2B inh	ALR H2O2 inh	UCH37 DUB inh	B2AR ag	HNF4A DNA FP	FGF22 binding	E coli growth
COc1ccccc1C(=O)N1[C@@H](C(C)C)COc2cc(Br)ccc2S1(=O)=O	·	·	·	4.2	2.4	i	·
CC(C)(C)NC(=S)N/N=C/c1cccnc1	-2.2	11.0	·	-5.7	3.2	i	·
Cc1cc(Cl)ccc1OC(C)C(=O)NCCc1ccc2c(c1)OCCO2 (centres undefined)	1.9	-9.9	3.2	0.5	25.8	i	0.715
CCC(=O)N1CCN(c2ccc(NC(=O)COc3ccccc3Cl)cc2)CC1	-4.0	7.0	4.7	-18.7	0.1	i	0.668
CC(=O)c1ccc(N2CCC(C(=O)O)CC2)cc1	-5.0	-23.2	8.3	1.6	-0.1	i	0.656
O=C(NC12CC3CC(CC(C3)C1)C2)N1CCN(C2CCCCC2)CC1	2.6	-12.4	-2.8	-7.9	4.0	i	0.63
CCOCCCNCc1ccc(OC)c(OC)c1	-4.3	-2.8	3.4	-0.3	0.7	·	0.753
CC(OC(=O)/C=C/c1ccccc1)C(=O)N1CCc2ccccc21 (centres undefined)	-3.3	10.8	2.0	2.4	-3.3	i	0.643
O=C(COC(=O)c1cc(Cl)nc(Cl)c1)NC1CCCCCC1	4.2	-12.3	-0.6	19.6	-5.7	i	0.648
Cc1ccc(C(=O)C(C)OC(=O)Cc2c[nH]c3ccccc23)cc1 (centres undefined)	-0.9	6.9	1.6	-6.6	-0.3	i	0.701

Ordered by value in LANA-H2B inh (high to low): some entries from above
Compound | LANA-H2B inh
CC(C)(C)NC(=S)N/N=C/c1cccnc1 | -2.2
CC(OC(=O)/C=C/c1ccccc1)C(=O)N1CCc2ccccc21 (centres undefined) | -3.3
CCOCCCNCc1ccc(OC)c(OC)c1 | -4.3

The list goes on.
SMILES	LANA-H2B inh	ALR H2O2 inh	UCH37 DUB inh	B2AR ag	HNF4A DNA FP	FGF22 binding	E coli growth
COC(=O)c1ccc(CNC(=O)C2CCC(=O)N(Cc3cccc(F)c3)C2)cc1 (centres undefined)	-3.0	-0.3	2.6	-1.9	-2.8	i	0.697
COc1cccc(N2C(=O)CN(Cc3ccccc3)C2=S)c1	-2.7	3.8	2.5	-0.5	-0.8	i	0.649
COc1cccc(C2=NOC(C(=O)Nc3ccc(OC)c(OC)c3)C2)c1 (centres undefined)	-1.2	-41.4	4.0	2.2	-1.8	·	0.674
Cc1cccc(OCC(=O)Nc2sc3c(c2C#N)CCC3)c1	-1.0	-0.7	2.5	-9.3	1.6	i	0.713
CCCCn1c(N)c(N(CCOC)C(=O)CCC2CCCCC2)c(=O)[nH]c1=O	1.2	·	0.9	3.0	-0.2	i	0.706
COCCNC(=O)c1ccc(CSCc2cccc(Cl)c2)o1	2.8	22.2	4.2	-1.9	-0.8	i	0.632
O=C(C(c1ccccc1)c1ccccc1)N1CCN(c2ccccn2)CC1	-0.6	-13.2	3.1	113.3*	0.1	i	0.67
CC(C)(C)[C@@H]1C=C(C(=O)O)[C@H](c2ccc(Cl)cc2)N1S(=O)(=O)c1ccccc1	·	·	1.2	4.9	3.1	i	0.637
CC1CCCCC1NC(=O)CN1CCC(NC(=O)c2cccc(F)c2)CC1 (centres undefined)	0.0	·	2.5	-12.2	-2.0	i	0.661
CCOC(=O)CSc1nnc(Cn2nnc(-c3ccccc3)n2)n1CC	5.2	-4.1	7.5	2.2	-0.4	·	0.712
Cc1oc(C(C)(C)C)cc1C(=O)NC1CCN(Cc2ccccc2)CC1	-0.4	·	7.4	-0.2	1.1	i	0.663
COc1ccc2nc(/C=N/NC(=O)CCNC(=O)OC(C)(C)C)ccc2c1	-2.1	-10.4	·	1.1	-0.8	i	·
O=C(Cc1ccccc1)NCc1n[nH]c(=S)n1-c1ccc(Br)cc1	4.9	26.1	0.8	4.2	0.2	·	0.706
COc1ccc(CC(NC(C)=O)C(=O)NC2CCN(C(=O)c3ccncc3)CC2)cc1OC (centres undefined)	-1.1	·	·	0.4	0.5	·	·
Nc1ccc(C(=O)Nc2ccc(Nc3ccncc3)cc2)cc1	0.3	68.8	5.0	-11.9	1.8	i	0.675
O=S(=O)(NC(=S)NC1CCCCC1)c1ccc(Br)cc1	2.0	17.1	0.2	-1.6	-0.6	i	0.686
C[n+]1ccc(/C=C/c2ccc(Br)cc2)cc1	-6.7	-7.8	-10.7	3.2	-2.5	·	0.715
COCCN(C(=O)CCC(=O)Nc1ccccn1)C(C(=O)NC(C)C)c1ccc(Cl)cc1 (centres undefined)	11.9	-3.1	8.3	-7.5	5.2	i	0.683
COc1ccc(S(=O)(=O)N2CCCOC2CNC(=O)C(=O)NCc2cccnc2)cc1 (centres undefined)	4.8	-0.4	2.4	6.1	2.6	i	0.717
O=C(NCC(O)c1ccccc1)Nc1cccs1 (centres undefined)	-2.8	3.5	2.9	3.3	2.8	i	0.695
COc1cc(C(=O)Nc2ccc3nc4n(c(=O)c3c2)CCCCC4)cc(OC)c1OC	-9.0	-3.7	4.2	6.3	-5.3	i	0.708
CC(C)c1nc(SCC(=O)NC2CCCC2)c2ccccc2n1	6.9	-2.1	2.9	-14.8	0.3	·	0.642
Cc1ccc(NCc2ccccc2O)c(C)c1	-1.2	?	3.9	-5.8	3.4	i	0.717
CC(=O)N1CCOc2ccc(S(=O)(=O)NCCc3cccc(C)c3)cc21	2.8	-0.4	2.9	-3.5	2.5	i	0.708
CCCCCc1c(C)nc(SCC(=O)O)[nH]c1=O	3.6	-7.3	4.8	2.9	-2.2	·	0.676
NC(=O)NC(CC(=O)NNC(=O)c1cccs1)c1ccc(Cl)cc1 (centres undefined)	3.1	-2.3	-0.3	-3.4	-0.6	i	0.67
Cc1c2ccccc2nc2c(F)c(NCCO)c(F)c(F)c12	·	·	4.4	-26.5	-34.7	·	0.689
COC(=O)c1ccc(-c2csc(NC(=O)C3=COCCO3)n2)cc1	-18.3	6.0	-6.4	-12.0	1.8	i	0.663
CCCC(=O)Nc1sc(C(=O)Nc2cccc(N)c2)c(C)c1C(=O)OC	-5.5	98.3*	-0.2	2.5	-2.5	i	0.714
N#Cc1ccccc1OCC(=O)NCCNC(=O)COc1ccccc1C#N	1.7	-5.5	4.6	-3.9	-0.7	i	0.674
COc1cc(OC)cc(-c2nnc(N(C)C(=O)c3ccncc3)s2)c1	2.0	-0.8	-16.5	-4.6	-1.2	i	0.654
COc1ccccc1NC(=O)C1CCN(c2ncnc3c2nc2n3CCCCC2)CC1	-0.9	-10.4	0.8	-7.8	-1.9	i	0.675
CC(C)C1N=C2c3ccccc3N=C(SCC#N)N2C1=O (centres undefined)	0.1	-6.3	-53.8	-3.7	-3.0	·	0.699
O=C(CN1CCN(C(=O)C2CC2)CC1)Nc1ccc(Cl)cc1F	·	·	0.8	8.4	-1.8	i	0.683
O=C1c2cccc3cccc(c23)C(=O)N1CCCc1n[nH]c(=S)n1-c1ccccc1	4.4	91.9*	-20.9	-3.1	1.8	i	0.67
CCC(C(=O)NC(C)(C)C)N(Cc1ccc(F)cc1)C(=O)c1snc(C(N)=O)c1N (centres undefined)	3.7	-1.0	-24.0	-1.1	3.0	i	0.62
COc1cc(S(=O)(=O)NCC2COCCO2)ccc1-n1cnnn1 (centres undefined)	1.5	-3.2	2.5	-3.7	-3.9	·	0.682
Brc1ccc(-c2noc3c2-c2nc(C4CCCCC4)sc2CC3)cc1	9.0	-3.1	1.6	0.5	-3.3	·	0.704
Cc1cc(/C=N\NC(=O)CC(=O)NC2CCCCC2)c(C)n1-c1cccc(Cl)c1Cl	0.7	-1.0	·	3.1	1.2	·	·
Cc1nn(Cc2cccc(C(=O)N3CCCC(C)C3)c2)c(C)c1[N+](=O)[O-] (centres undefined)	1.2	2.6	3.6	2.6	0.9	·	0.643
COc1ccc2nc(SCC(=O)NC3CCCC3)c(C)cc2c1	-2.6	-12.2	·	-21.9	0.8	i	·
O=[N+]([O-])c1cccc(-c2ccc(/C=N/Nc3nc(N4CCCCC4)nc(N4CCCCC4)n3)o2)c1	4.6	10.4	·	2.3	0.9	i	·
COc1ccccc1NS(=O)(=O)c1cc(NC(=O)COc2ccccc2)ccc1N1CCOCC1	-5.7	-1.1	2.0	3.8	-1.7	·	0.737
Cc1ccc(NC(=O)CSc2ncccn2)cc1S(=O)(=O)N1CCCCC1	-1.1	-1.1	-0.6	-9.8	1.5	i	0.66
O=c1ccsn1Cc1ccccc1	-3.5	97.9*	2.3	21.1	1.2	·	0.0445*
COc1ccc(CCNC2CC(=O)N(C3CCCCC3)C2=O)cc1OC (centres undefined)	-4.1	0.6	1.4	-4.0	4.1	i	0.718
Cc1nc2c(C#N)c(-c3ccc(Cl)cc3)ccn2n1	0.7	5.1	-13.3	-13.4	2.3	i	0.668
Cc1ccc(SCCC(=O)N(C)CC(=O)Nc2c(C)cccc2C)cc1	-0.3	0.1	-2.2	-0.2	1.1	i	0.744
NC(=O)C1CCN(C(=O)c2ccc3c(=O)n(Cc4cccc(Br)c4)c(=S)[nH]c3c2)CC1	1.8	1.5	4.7	-1.5	1.6	i	0.699
COc1ccc(OCC(=O)N2CCCC(CO)(CCOc3ccccc3)C2)cc1 (centres undefined)	-5.7	-9.8	-0.3	10.3	0.3	i	0.684
CCOC(=O)C1=C(C)N=c2s/c(=C/c3ccccc3)c(=O)n2C1c1ccc(OC)c(OC)c1 (centres undefined)	-3.8	-4.2	·	0.4	-2.3	·	·
